Bioassay records deposited in PubChem by National Center for Advancing Translational Sciences (NCATS).
TRPML1 blocker – blocks the human TRPML1 channel; Q9GZU1; TRPML1-inducible cells, Ca2+ dye fluorescence, FDSS; hits give low values; inhibition of EC80 agonist-evoked calcium signal; activity change, negative = inhibition, % (test concentration not listed); 0.02% of 390,000 active; AID 624415; in the data active means activity change below about -50%; inconclusive means about -30% to -50%; inactive means above about -30%;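 note: stimulus is agonist 54-4 at its EC80 concentration; % is set by controls: 0 for no effect and ±100 for the full control effect; compound concentration not given in the record; the text of the record puts the active cut at -80%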
Target sequence (Q9GZU1 whole entry, looked up): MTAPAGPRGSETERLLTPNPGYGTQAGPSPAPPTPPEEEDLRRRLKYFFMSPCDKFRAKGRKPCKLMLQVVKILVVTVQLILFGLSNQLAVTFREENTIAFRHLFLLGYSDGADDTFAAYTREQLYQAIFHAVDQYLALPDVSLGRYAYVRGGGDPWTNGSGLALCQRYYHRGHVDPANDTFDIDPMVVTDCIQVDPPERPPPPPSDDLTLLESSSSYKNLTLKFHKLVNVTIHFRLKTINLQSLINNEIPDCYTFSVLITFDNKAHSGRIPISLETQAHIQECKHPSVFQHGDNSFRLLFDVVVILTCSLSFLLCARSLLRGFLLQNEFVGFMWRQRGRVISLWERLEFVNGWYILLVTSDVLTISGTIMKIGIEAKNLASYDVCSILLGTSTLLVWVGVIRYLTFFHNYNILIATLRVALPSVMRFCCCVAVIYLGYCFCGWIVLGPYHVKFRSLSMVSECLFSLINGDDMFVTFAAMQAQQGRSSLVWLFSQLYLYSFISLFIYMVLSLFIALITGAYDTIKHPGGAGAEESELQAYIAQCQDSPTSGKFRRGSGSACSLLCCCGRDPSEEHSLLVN
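Tet-induced TRPML1-DL cells loaded with Ca8 no-wash calcium dye were read kinetically on FDSS. Compound addition was followed by EC80 agonist 54-4 (4 uM final); inhibition was read over 110 s.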
ClpP mod – qHTS Assay for Activators of ClpP; ATP-dependent Clp protease proteolytic subunit (Bacillus subtilis (strain 168)), P80244; purified B. subtilis ClpP, FRET peptide cleavage, 20 min; Potency, µM (highest dose often 57.5 µM), for the others: top-dose activity change, negative = active; 1.9% of 340,000 active; AID 651965, 2013; active = well fitted falling curve with a large enough effect; inconclusive = small, poorly fitted or top-dose-only effect; inactive = no such curve, though single readings can be large or run the other way; note: potency is the fitted concentration of half-maximal effect; the source files actives as falling curves though it sought activators and does not explain the sign; nearly all actives have a fitted effect of over 65% in size; many hits overshoot -100%
Target sequence (P80244 whole entry, looked up): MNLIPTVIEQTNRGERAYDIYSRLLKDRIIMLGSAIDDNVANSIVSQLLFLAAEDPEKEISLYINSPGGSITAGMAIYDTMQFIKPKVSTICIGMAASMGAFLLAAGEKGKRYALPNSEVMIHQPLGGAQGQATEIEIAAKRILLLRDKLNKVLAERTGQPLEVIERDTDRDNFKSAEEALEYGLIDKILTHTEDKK
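ClpP 10 microg/mL final, pH 8 Tris/KCl buffer with BSA, glycerol, Tween-20; compound pinned in; FRET-FV substrate; RT 20 min; Ex320/Em430; ΔFRET vs ADEP 5.8 microM, DMSO, no enzyme.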
gsp antag – antagonizes gsp, the McCune-Albright syndrome mutation. 0.4% of 340,000 active. Potency, µM (series often up to 76.9 µM), without a hit: at the top dose activity change, negative = inhibition, usual class: inhibitors. gsp-mutant cells, cAMP HTRF, 30 min; control for the full effect not named in the record; active = falling curve of any shape with a large fitted effect; inconclusive = falling curve, mostly with a smaller effect; inactive = flat or rising curve; cell line not stated here;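 note: intracellular cAMP measured with PDE inhibitor Ro 20-1724 present during compound exposure; potency is the fitted concentration of half-maximal effect; % is set by controls: 0 for no effect and ±100 for the full control effect; nearly all actives have a fitted effect of over 65% in size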
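Cells, 2000/well, grown 16–24 h in DMEM 10% FBS with 0.5 mg/ml G418, then compounds plus […] (300 uM addition stock), 30 min at 37C. cAMP read by HTRF (cAMP-d2 and anti-cAMP antibody-K in lysis buffer) after 30 min RT.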
TRPML1 agonist – agonists of human TRPML1 channel | Q9GZU1 | TRPML1-expressing cells, Ca2+ dye fluorescence, FDSS; host cell line not named in the record; reference of the full effect not given here | activation, % (test concentration not listed) | 0.12% of 410,000 active | AID 624414; in the data active = activation above about 50%; inconclusive = about 30% to 50%; inactive = below about 30%; note: 0% is about no effect; the text of the record puts the active cut at 80%
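In this qHTS format, compounds were pin-transferred onto Ca8-dye-loaded TRPML1-DL cells induced with Tet overnight, and intracellular Ca2+ fluorescence was recorded kinetically for 110 s after a 10 s baseline. A subsequent 4uM final 54-4 (EC80) addition followed by a second 110 s read served as the antagonist phase.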
gsp ag – activates gsp, the McCune-Albright syndrome mutation | Potency, µM (highest dose often 76.9 µM), without a hit: at the highest dose activation (cAMP increase), usual class: activators | 0.13% of 340,000 active | gsp mutant cells, cAMP HTRF, 30 min; control for the full effect not named in the record | AID 624287; active = well fitted activation curve with a large enough effect; inconclusive = small, poorly fitted or top-dose-only effect, or another doubt; inactive = no such curve, though single readings can be large or run the other way; cell line not stated here;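 note: phosphodiesterase inhibitor Ro 20-1724 added with compounds to block cAMP breakdown; potency is the fitted concentration of half-maximal effect; nearly all actives have a fitted effect of over 60% in size; about a fifth of the inactives were tested at one dose only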
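Cells in DMEM/10% FBS with G418 were pretreated with compounds in DMSO plus […] (300 uM stock) for 30 min at 37C. cAMP was measured by HTRF (cAMP-d2 plus anti-cAMP antibody-K) after 30 min at room temperature.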
Menin-MLL FL inh – displaces fluorescein MLL peptide from human menin; Fluorescence polarization, fluorescein-MLL peptide displacement from menin; FP activity change, % at 61.4 µM; 290,000 tested, under 10 active; inconclusive = falling polarisation curve, or a change in total fluorescence; inactive = total fluorescence flat and polarisation flat or rising; no compound was filed as active; the % refers to the polarisation; negative = inhibition;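 note: % of control where 0% means no effect; inhibitors lower the polarisation; unlabelled MLL peptide was the positive control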
Active calls of the source: *; ? = inconclusive; · = no result given; & = joins results of further samples; [ ] = another dose, or the depositor's remark. Random draw from the library; about 2.1% have a hit in one of these screens.

SMILES	TRPML1 blocker	ClpP mod	gsp antag	TRPML1 agonist	gsp ag	Menin-MLL FL inh
CCC(C)n1nccc1NC(=O)C(C)OC(=O)c1cc2ccccc2[nH]1 (configuration not stated)	-9	28µM*	-13%	0.2	-5%	-0.1
CCOC(=O)c1ccc(COc2ccc(C(C)C)cc2)o1	-5	·	-3%	-0.2	1%[15.4 µM]	-1.5
c1ccc(Cc2nn3c(C4COc5ccccc5O4)nnc3s2)cc1 (configuration not stated)	2	0.8%	7%	1.3	-3%	1.5
O=C(c1ccc(Cl)c(S(=O)(=O)NCc2ccco2)c1)N1CCN(c2ccccc2F)CC1	-5	-0.7%	-20%	-0.5	2%	-0.4
CCOC(=O)CSc1nc2ccc(NC(C)=O)cc2s1	-11	38%	?	-0.3	-2%	-1.9
O=c1c2sc3nc(N4CCOCC4)c4c(c3c2ncn1CCc1ccccc1)CCCC4	1	-7.2%	2%	-0.2	-29%	4.5
NC(=S)c1csc(CCNC(=O)c2ccccc2)n1	3	1.5%	·	-0.5	-44%	·
Cc1ccc(C2CC(c3ccccc3C)n3nc(N)nc3N2)cc1 (configuration not stated)	-7	0.4%	-1%	0.4	?	0.1
Cc1ncc(CN2CCC(C(=O)Nc3ccc(Oc4cccnc4)cc3)CC2)cn1	17	-2.2%	2%	0.6	-44%[15.4 µM]	-0.8
O=C(CNC(=O)C1CCCCC1)NCc1ccco1	-13	·	4%	0.4	-40%[inhibitor]	0.2
CCN(CCn1cccn1)C(=O)CCc1nnc(Cc2c[nH]c3ccccc23)o1	-3	-0.8%	2%	-0.7	-3%	0.4
Cc1cc(C)nc(SC(C)C(=O)N/N=C/c2cccs2)n1 (configuration not stated)	-10	-2.2%	-1%	0.9	-7%	6.0
Cc1ccc(Cc2c(-c3ccccc3)nc3ccc(Br)cn23)cc1	-1	-6.8%	·	1.0	40%	·
CC(O)[C@H]1CNCCN1CCc1cccc(F)c1 (some centres not stated)	3	3.6%	5%	0.1	·	·
CCCCn1c(N)c(N(CCOC)C(=O)c2ccco2)c(=O)[nH]c1=O	-1	-6.6%	3%	-0.5	-11%	·
Cc1cc(OCC(=O)NC2CC(C)(C)NC(C)(C)C2)c2c(C)cc(=O)oc2c1	-4	3.2%	-4%	-0.4	-20%	-6.5
COC(=O)c1sc2cc(C(F)(F)F)cnc2c1-c1cccnc1	25	-9.0%	5%	0.9	-52%[inhibitor]	-0.2
COc1ccccc1/C=C1\SC(=O)N(CCC(=O)NNC(=O)c2ccccc2Cl)C1=O	-1	?	5%	0.0	-21%	3.5
COc1ccc(CN2C(=O)c3cccnc3C2=O)cc1S(=O)(=O)NCc1ccc(C)o1	2	0.1%	7%	-0.1	?	3.2
Cc1c(Cl)cccc1Nc1nc(N)nc(CSc2nc3ccccc3s2)n1	0&14	-7.9%&-1.0%	8%	0.0&1.8	-13%	1.0

The last 3 compounds of the part above lead into the next:
SMILES	TRPML1 blocker	ClpP mod	gsp antag	TRPML1 agonist	gsp ag	Menin-MLL FL inh
COc1ccccc1/C=C1\SC(=O)N(CCC(=O)NNC(=O)c2ccccc2Cl)C1=O	-1	?	5%	0.0	-21%	3.5
COc1ccc(CN2C(=O)c3cccnc3C2=O)cc1S(=O)(=O)NCc1ccc(C)o1	2	0.1%	7%	-0.1	?	3.2
Cc1c(Cl)cccc1Nc1nc(N)nc(CSc2nc3ccccc3s2)n1	0&14	-7.9%&-1.0%	8%	0.0&1.8	-13%	1.0
COc1ccc(CNCC2COc3ccccc3O2)cc1 (configuration not stated)	·	0.3%	8%	·	-7%	-9.7
COc1cc(NC(=O)c2ccccc2Cl)c(OC)cc1NC(=O)CN1CCCCC1	-12	·	14%	0.4	0%	0.8
COc1ccc(NC(=O)Nc2cc(C(=O)NCc3ccc(C)cc3)ccc2N2CCCC2)cc1	15	-4.5%	·	0.4	·	·
Cc1cc2c(cc1C)NC1=C(N2)OC(c2cccc(O)c2)C1=O (configuration not stated)	30	-2.2%	-11%	0.9	-74%[inhibitor]	-3.5
Cn1nnnc1SCC(=O)Nc1ccc(Cl)c(S(=O)(=O)N2CCOCC2)c1	48	-0.3%	4%	0.5	52%	5.7
Cc1cc(C)n(-c2nnc(N3CCN(c4ccccc4)CC3)nn2)n1	-5	·	-3%	-0.5	-26%	-5.6
COC(=O)c1sc(N)c(C(=O)OC)c1COC(=O)[C@@H](NS(=O)(=O)c1cccc(Cl)c1)C(C)C	20	-12%	-4%	1.7	5%	6.2
Cc1cccc(CSc2cn(CC(=O)N3CCCCC3)c3ccccc23)c1	29	-2.1%	·	3.0	·	·
Nc1cc(Cl)nc(N/N=C/c2ccc([N+](=O)[O-])cc2)n1	15	-3.0%	-8%	0.6	5%	0.9
CC(C)c1nccn1CCC(=O)O	9	0.6%	10%	0.2	21%	-0.9
O=C(Nc1ccc(Cl)cc1)N(Cc1nnc2n1CCCCC2)c1ccccc1	-13	-3.6%	9%	-0.2	?	-1.8
Cc1cc(=O)oc2c(C)c(OC(C)C(=O)NCCCN3CCCC3=O)ccc12 (configuration not stated)	29	3.5%	5%	0.3	?	-2.5
CC(NC(=O)c1ccccc1)c1nnc(SCC(=O)NC2=NCCS2)n1C (configuration not stated)	20	·	11%	-0.1	23%	2.1
COC(=O)C(C)N(C#N)c1nc(NC(C)C)nc(SC)n1 (configuration not stated)	-23	-28%	0%	-0.2	-33%[inhibitor]	0.7
Cc1nn(CC(=O)NCCN2CCCCCC2)c(=O)c2nn(-c3ccccc3)c(C)c12	0	-4.7%	-16%	-0.6	-2%	-2.7
O=c1c(-c2ccco2)[n+]([O-])c2ccccc2n1OCc1ccccn1	1	-1.4%	7%	-0.8	?	0.2
COc1ccc(/C=N\NC(=O)c2ccccc2Br)cc1COc1ccc(F)cc1	-3	-16%	-20%	1.6	-15%	1.5
O=C(COc1ccc(-c2nnco2)cc1)Nc1cc([N+](=O)[O-])ccc1F	0	·	0%	-0.9	7%	·
CC(=O)Nc1ccc(S(=O)(=O)c2ccc([N+](=O)[O-])cc2)cc1	-4	-1.2%	8%	1.0	-1%	-1.0
N=c1sccn1CC(=O)NCc1ccc(Cl)cc1Cl	4	·	9%	-0.1	23%	3.7
CCOC(=O)NC(=O)/C(N=Nc1ccc(C(F)(F)F)cc1)=C(\C)O	-14	·	0%	0.4	-12%	-0.2
Cc1cc(Nc2ccc(F)cc2Cl)n2nc(C)nc2n1	-5	-0.9%	5%	-0.3	?	1.3
O=C(CN1CCN(S(=O)(=O)c2ccc(Cl)cc2)CC1)NCC1(N2CCOCC2)CCCCC1	-13	-0.5%	-19%	1.1	-2%	·
CC(=O)Nc1cccc(C(=O)Nc2cc(C(F)(F)F)ccc2-n2cncn2)c1	7	-1.2%	·	-0.3	-1%	·
COc1cc(OC)cc(C(=O)NNC(=O)Cc2ccc(OC)c(S(=O)(=O)N3CCOCC3)c2)c1	-3	-3.7%	-4%	-0.3	0%	0.1
CCn1cc([N+](=O)[O-])c(C(=O)N2N=C3/C(=C/c4cccs4)CCCC3C2c2cccs2)n1 (configuration not stated)	4	-2.2%	-11%	-0.4	-36%[inhibitor]	-1.7
CCOc1ccc(NC(=O)Nc2cnccn2)cc1	21	·	-10%	-0.4	-2%[15.4 µM]	2.0
c1ccc(-n2nnnc2OCCOc2nnnn2-c2ccccc2)cc1	9	0.4%	-12%	0.2	14%	0.5
O=C(COc1ccc([N+](=O)[O-])cc1)N(C1CCCCC1)C1CCS(=O)(=O)C1 (configuration not stated)	6	·	1%	1.1	-27%[15.4 µM]	·
Nc1ccc(Cl)c(S(=O)(=O)Nc2ccc(Cl)cc2)c1	8	·	-5%	-0.6	27%[15.4 µM]	1.4
NCCN1CCN2C(=O)CN(C(=O)c3ccccc3)CC12 (configuration not stated)	-10	0.5%	6%	-0.6	25%	·
C[C@H]1CN([C@@H](C)CO)S(=O)(=O)c2ccc(C#CC(C)(C)O)cc2O[C@H]1CN(C)Cc1ccccc1	7	-1.9%	·	0.5	?	·
O=C(/C=C/c1ccccc1)N1CCOCC1	·	-1.1%	0%	·	-15%	2.0
COc1ccc(C(=O)N/C(=C/c2cccnc2)C(=O)N2CCCCCC2)cc1OC	17	-2.3%	-2%	0.5	18%	-3.0
CC1CCCN(C(=O)Cn2nnc(-c3cccnc3)n2)C1 (configuration not stated)	37	0.1%	8%	-0.1	6%	3.1
Cc1ccc2nc(-c3ccccc3)cc(C(=O)Nc3cccnc3)c2c1	30	54%	-12%	3.0	?	·
COc1cccc(OCc2nc3ccccc3n2CCOc2cccc(C)c2)c1	57	-1.7%	·	7.6	·	·
COc1cc(OC)cc(C(=O)Nc2nc(-c3nnn(-c4ccc(F)c(Cl)c4)c3C)ns2)c1	-2	6.4%	·	-0.1	·	·
CC(NC(=O)c1nn(C)c(=O)c2ccccc12)c1ccccc1 (configuration not stated)	2	1.3%	9%	-0.1	24%	-0.3
CCN1CCN(c2ccc(N=Cc3ccccc3O)cc2)CC1	-3	-2.6%	-10%	2.6	-43%[inhibitor]	-5.6
NC(=O)CSc1nnc(-c2ccco2)n1-c1ccccc1	10	-1.7%	-1%	1.2	-17%	1.1
Cc1ccc(OCCC(=O)OCC(=O)Nc2ccc(Cl)cn2)cc1	33	-4.1%	9%	-0.6	15%	-4.5
CCC1CCCCN1S(=O)(=O)c1c(C)n(C)c(=O)n(C)c1=O (configuration not stated)	-3	1.1%	5%	0.1	-20%	·
CCN(C(=O)CSc1nnc(-c2ccccc2OC)n1N)c1c(N)n(Cc2ccccc2)c(=O)[nH]c1=O	9	-2.9%	8%	0.4	9%	·
O=C(c1cc2ccccc2oc1=O)N(Cc1ccco1)CC1CCCO1 (configuration not stated)	-9	-8.2%	-1%	-0.7	?	-1.0
Cc1ccccc1NC(=O)C(C)OC(=O)C1CC(=O)N(Cc2ccco2)C1 (configuration not stated)	9	1.2%	15%	-0.6	-3%	·
COc1ccc(CNC(=O)CC(NC(N)=O)c2ccccc2Cl)cc1OC (configuration not stated)	1	-0.4%	12%	-1.0	-19%[15.4 µM]	-0.5
CC[C@]1(C(=O)OC)[C@H]2C(=O)N(Cc3ccccc3)C(=O)[C@H]2[C@H]2CN=C(SCc3ccc(Cl)cc3)N21	4	-0.4%	-25%	0.6	·	·
COC(=O)c1cc(NC(=O)Cn2nc(C)n3cccc3c2=O)cc(C(=O)OC)c1	4&8	-3.8%&-6.1%	10%	2.1&0.2	-23%	-1.3
